High-throughput results deposited in PubChem BioAssay by National Center for Advancing Translational Sciences (NCATS).
HTT promoter inh: Primary qHTS for Identification of Small Molecule Inhibitors of Huntingtin Promoter Activity. HEK293 HTT promoter firefly luciferase reporter (activity 0% = vehicle and -100% = no light), 24 h. 0.93% of 48,000 active. Potency, µM (top dose mostly 57.5 µM), for inactives: top-dose activity change, negative = inhibition, hits mostly inhibitors; active = well fitted inhibition curve with a large enough effect; inconclusive = small, poorly fitted or top-dose-only effect; inactive = no such curve, though single readings can be large or run the other way; note: nearly all actives have a fitted effect of over 50% in size
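HEK293 Fluc reporter, 2,500 cells/well, 24 h pre-culture; cpds up to 57.5 uM final, 24 h 37 degrees C; Dual-Glo, 10 min RT; normalized vehicle = 0%, zero RLU = -100%.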
PMP22 txn prim: Cell-based coincidence reporter assay to measure PMP22 gene transcription in S16 Pmp22-F2sN cells - Primary screen; S16 Pmp22-F2sN Schwann cells (luciferase reporters placed in the Pmp22 gene), FLuc/NLuc coincidence luminescence, 24 h; Potency, µM (titrated, usually from 57.5 µM), inactives show at the top dose activity change, negative = inhibition, actives largely listed as inhibitors; 2% of 43,000 active; AID 1508649, 2021; active = clear falling dose curves in both reporters; inconclusive = both reporters move, but less clearly or upward; inactive = either reporter flat; the % is the NLuc reporter signal; note: % is set by controls: 0 for no effect and ±100 for the full control effect; some results filed as inactive show a strong effect at the top dose
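Luminescent read-out of sequential FLuc and NLuc signals from a reporter embedded in the Pmp22 3' UTR of S16 Schwann cells, taken after 24 h compound exposure at 37C; compounds reducing both signals score as inhibitors of expression.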
Starred values were filed as active, the others as inactive; ? = inconclusive; . = no result given; [ ] = another dose, or the depositor's remark. Potency is the fitted concentration of half-maximal effect.

SMILES	HTT promoter inh	PMP22 txn prim
Cc1ccc(N(C)C(=O)C2CCCN(c3ncnc4c3nc3n4CCCCC3)C2)cc1C (stereo unspecified)	?	?
CCOCC(=O)Nc1ccc(-c2cn3c(C)csc3n2)cc1	1.3µM*	?
COc1ccccc1NC(=O)c1cc2cc3ccc(OC)c(Cl)c3nc2s1	8%	?
COc1ccccc1CNS(=O)(=O)c1c(C)nc2sc(C)cn2c1=O	-1%	-13%
COc1ccccc1NC(=O)C(=O)c1cc(C)n(-c2cc(C)cc(C)c2)c1C	-5%	?
Cc1ccc(CNC(=O)c2nc(SCc3ccc(C)cc3)ncc2Cl)cc1	-8%	?
CCN(CCCNC(=O)CN1N=C(c2ccc(C)cc2)CCC1=O)c1ccccc1	-28%	?
CCOc1ccc(C(=O)c2cn(CC(=O)Nc3ccc4c(c3)OCCO4)c3ccc(F)cc3c2=O)cc1	-7%	0%
COc1ccc(NC(=O)C2Cc3ccccc3N2C(=O)c2ccccc2)c(OC)c1 (stereo unspecified)	0%	-14%
CCN1CCN(c2ncnc3c2cnn3-c2cccc(C)c2)CC1	62%[activator]	-20%
COc1ccc(S(=O)(=O)NCCS(=O)(=O)N2CCN(c3ccccc3)CC2)cc1C	?	-22%
Cn1c(=O)c2c(-c3ccc(Cl)cc3)n(CCc3ccccc3)cc2n(C)c1=O	-7%	?
Fc1ccc(-c2cn3cc(Cc4ccccc4Cl)sc3n2)cc1	?	-4%
O=C(CSc1cn(CC(=O)N2CCCCC2)c2ccccc12)Nc1ccccc1F	?	-26%
COc1ccccc1N(CC(=O)NCCSCc1ccccc1)S(C)(=O)=O	-9%	7%
COc1ccc(CCNc2oc(COc3ccc(Cl)cc3)nc2C#N)cc1OC	?	?
Cc1cccc(C(=O)Nc2ccc3nc(SCC(=O)N4CCc5ccccc54)sc3c2)c1	-14%	-4%
CC1CCN(S(=O)(=O)c2ccc3c(ccn3CC(=O)NCc3ccccc3F)c2)CC1	-23%	-34%
CC(=O)N1CCCc2cc(S(=O)(=O)N3CCC(C(=O)NCc4ccc(F)cc4)CC3)ccc21	?	-11%
O=C(CCCn1c(=O)[nH]c2ccccc2c1=O)N1CCN(c2ccccc2)CC1	-8%	-26%
Cc1c(C(=O)N2CCOCC2)oc2c1-c1nn(CC(=O)NCc3cccc(F)c3)cc1CC2	?	3%
CCc1cccc(C)c1NC(=O)C(NS(=O)(=O)c1ccc2c(c1)CCC(=O)N2)c1ccccc1 (stereo unspecified)	-14%	-10%
Cc1cc(C)c(CN2C(=O)c3ccccc3S(=O)(=O)c3ccc(C(=O)OCC4CCCO4)cc32)c(C)c1 (stereo unspecified)	-17%	-28%
O=C(NCCCN1CCN(c2ccc(F)cc2)CC1)Nc1ccccc1Cl	-16%	13µM*
COc1ccc(CC(=O)NC2CC(=O)N(c3ccc4c(c3)OCCO4)C2)cc1 (stereo unspecified)	-11%	-1%
O=C(Cn1cc(C(=O)c2ccncc2)c(=O)c2cc(F)ccc21)Nc1ccc(Cl)cc1	-26%	-15%
O=C(CC1C(=O)N(c2ccc(F)cc2)C(=O)N1Cc1ccc2c(c1)OCO2)Nc1ccc(F)cc1 (stereo unspecified)	-23%	?
CCCCN(C)CCNC(=O)C1CCCN(S(=O)(=O)c2ccc3c(c2)oc(=O)n3C)C1 (stereo unspecified)	-9%	-13%
CC(C=CC(=O)NO)=C[C@@H](C)C(=O)c1ccc(N(C)C)cc1	25%	.
O=C(Nc1ccc(Cl)cc1)N1CCN(c2ccc3nnc(-c4ccccc4)n3n2)CC1	?	?
CC1=C(C(=O)Nc2ccc(C)cc2Cl)C2(CCCCC2)OC1=O	?	?
Cc1ccc(NC(=O)Cn2cc(S(=O)(=O)N3CCN(c4ccccc4F)CC3)c3ccccc3c2=O)cc1F	-20%	-13%
Cc1ccc(-c2nnc(SCc3cccc(C#N)c3)o2)cc1	16%	-10%
O=C(Nc1ccc(F)c(Cl)c1)N1CCC2(CC1)Oc1ccccc1C(=O)N2Cc1ccccc1F	-15%	?
CCCn1c2ccccc2c2cnn(CC(=O)N(Cc3ccccc3)C(C)C)c(=O)c21	-2%	?
C/C=C(/C(=C/C)c1ccc(O)cc1)c1ccc(O)cc1	-13%	.
Cc1nn2c(=O)cc(COC(=O)c3ccc(NC(=O)c4cccc(Br)c4)cc3)nc2s1	?	?
Cc1ccc(N(CC(=O)NCC(C)c2ccccc2)S(=O)(=O)N(C)C)cc1 (stereo unspecified)	0%	9%
COc1cccc(-c2noc(COc3ccccc3Cl)n2)c1	50%[activator]	11%
CN(C)c1ccc(CNC(=O)CCn2cccn2)cc1	4%	2%
CC1Cc2cc(S(=O)(=O)N(C)c3ccc(Br)cc3)ccc2N1C(=O)C1CC1 (stereo unspecified)	?	-14%
Cc1cccc(NC(=O)CSc2nc(-c3ccccc3)cn2-c2ccccc2)c1C	?	?
O=C(CSc1nc2c([nH]c3ccccc32)c(=O)n1-c1ccccc1)N1CCCCC1	-3%	-24%
CCS(=O)(=O)N1CCC2(CC1)OC(=O)C(C)=C2C(=O)NCc1ccccc1C	1%	-1%
COc1ccc(-c2nc(Cn3c(SCc4cccc(Cl)c4)nc4ccncc43)c(C)o2)cc1	-28%	?
Cc1[nH]c2ccccc2c1C1(O)C(=O)N(Cc2ccccc2Cl)c2ccccc21 (stereo unspecified)	-12%	?
COCCn1c(CNC(=O)c2cc([N+](=O)[O-])ccc2Cl)nc2cccnc21	2%	-18%
CN1CC[C@H](c2c(O)cc(O)c3c(=O)cc(-c4ccccc4Cl)oc23)[C@H](O)C1	?	.
Cc1c(NC(=O)c2ccc(Cl)cc2)cc(C(C)C)c(O)c1S(=O)(=O)c1ccc(Cl)cc1	-1%	21%
COc1cc(Cl)c(C)cc1Nc1nc2ccccc2c2nnc(C)n12	6%	0%
COc1ccc(C(=O)CN2CCN(S(=O)(=O)c3ccc(F)cc3)CC2)cc1	-3%	?
CCOc1ccc(NC(=O)c2cnn3c2NC(c2ccccc2)=CC3c2cccc(OC)c2OC)cc1 (stereo unspecified)	?	?
CCCCN1CCc2nc(Nc3ccc(OC)cc3OC)ncc2C1	-17%	-10%
COc1cccc(C(=O)Nc2nnc(S(=O)(=O)N3CCOCC3)s2)c1	-5%	19%
CC(C)C(=O)N1c2nc(C(C)C)nn2C2(CCCCC2)[C@@H]2CCCC[C@@H]21	0%	-15%
Cc1cc(Nc2cccc(C(F)(F)F)c2)nc2ccc(NC(=O)c3cccc(Cl)c3)cc12	?	?
CCOC(=O)c1ccc(-n2c(CCC(=O)O)ccc2-c2ccc(Br)cc2)cc1	-7%	-1%
CCc1ccccc1NC(=O)C(C)n1c(=O)cc(C)c2c(C)nn(-c3ccccc3)c21 (stereo unspecified)	-15%	?
CCOc1ccc(CCNC(=O)CCCn2nc(C)c3sc4ccccc4c3c2=O)cc1OCC	-24%	?
O=C(CC1N=C2c3ccccc3N=C(SCc3ccccc3Cl)N2C1=O)NCc1cccs1 (stereo unspecified)	-17%	-151%
(next part)
SMILES	HTT promoter inh	PMP22 txn prim
O=C(Nc1nc(-c2ccc(Br)cc2)ns1)c1ccc(F)cc1	-7%	-7%
CCOC(=O)c1ccc(Nc2nc3ccccc3nc2NS(=O)(=O)c2ccc(Cl)cc2)cc1	?	-20%
COc1ccc(C)cc1NC(=O)Cn1c(=O)n(Cc2nc(C)no2)c(=O)c2ccccc21	-1%	16%
Cn1ncc2c(NCc3ccccc3Cl)nc(NCCO)nc21	-19%	7%
Cc1ccccc1CSCCNC(=O)CN(c1ccccc1)S(=O)(=O)N(C)C	?	-16%
Cc1ccc(NC(=O)c2ccc3snnc3c2)cc1C	30%[activator]	-7%
Cn1nc(C(=O)N2CCN(c3ccccc3)CC2)c2c1-c1ccccc1SC2	-15%	-3%
COc1cccc(CNC(=O)c2c3c(nc4ccccc24)C(=O)N(C2CCCCC2)C3)c1	-13%	?
Clc1ccc(-c2noc3ncnc(NCCCN4CCN(c5ccccc5)CC4)c23)cc1	?	?
COc1cc(C2CC(=O)Nc3cc4c(cc32)OCO4)cc(OC)c1O (stereo unspecified)	-9%	?
Cc1cc(=O)n(CC(=O)NC(C)c2ccccc2)c2c1c(C)nn2C (stereo unspecified)	-40%	?
CCN(Cc1ccccc1)C(=O)CCS(=O)(=O)c1cc2c(cc1Cl)NC(=O)CO2	-8%	-24%
O=C(NCCCCc1ccccc1)c1nn(-c2ccccc2)nc1CO	?	-1%
CCOC(=O)C1CCN(C(=O)c2ccccc2NC(=O)c2nsc3ccccc23)CC1	-9%	-18%
CCOc1ccc(CCNC(=O)CCc2c(C)nc3cc(-c4ccccc4OC)nn3c2C)cc1	13µM*	?
COc1cc(CNc2ccc3[nH]c(=O)[nH]c3c2)cc(Cl)c1OCc1ccc(F)cc1	-13%	?
Cc1[nH]c(C=C2C(=O)Nc3ccc(S(=O)(=O)N(C)c4cccc(Cl)c4)cc32)c(C)c1C(=O)N1CCN(C)CC1	-19%	.
Cc1ccc(Cl)cc1NC(=O)CCc1c(C)nc2c3cccnc3nn2c1C	-12%	-10%
Cc1cc(C)c(NS(=O)(=O)c2ccc(-c3cnc(C4CC4)o3)cc2)c(C)c1	?	?
CCOC(=O)CCNC(=O)N1CCN(S(=O)(=O)c2ccc3c(ccn3C)c2)CC1	-27%	-5%
COc1ccc(CCNC(=O)c2c(C)oc3ncn(C)c(=O)c23)c(OC)c1	0%	6%
CSc1ccc(CCNC(=O)c2ccc3c(c2)nc2n3CCCCC2)cc1	?	-63%
O=C1CCCc2cc(S(=O)(=O)NCC3CCC(C(=O)NCc4ccccc4Cl)CC3)ccc2N1 (stereo unspecified)	-25%	?
Cc1cccc(C)c1-n1ncc(C(=O)NCCN2CCN(C)CC2)c1C1CCN(C(=O)OC(C)(C)C)CC1	-23%	5%
Cc1ccc(CNC(=O)CN(C)S(=O)(=O)c2ccc3c(c2)c(=O)n(C)c(=O)n3C)cc1	0%	-33%
CSc1ccc(CCNC(=O)CCc2c(C)nc3c(c(C)nn3-c3ccc(C)c(C)c3)c2C)cc1	9%	-20%
CNS(=O)(=O)c1cn(CC(=O)N2CCN(c3ccc(C(C)=O)cc3)CC2)cc1S(=O)(=O)NC	2%	8%
Fc1cccc(NCc2ccccc2-c2nnc(-c3ccccc3Cl)o2)c1	82%[activator]	5%
Cc1cc(NC(=O)N2CCC(CN3CCOCC3)CC2)ccc1Br	-13%	0%
O=C(CSc1nccn1C1CCCC1)Nc1ccccc1	36%[activator]	4%

The last two compounds of the section above are carried over, then new ones follow.
SMILES	HTT promoter inh	PMP22 txn prim
Cc1cc(NC(=O)N2CCC(CN3CCOCC3)CC2)ccc1Br	-13%	0%
O=C(CSc1nccn1C1CCCC1)Nc1ccccc1	36%[activator]	4%
CCOC(=O)c1sc2ccccc2c1S(=O)(=O)NCc1ccc(F)cc1	-9%	-5%
COc1cc(OC)c(NC(=O)c2sc3nc4n(c(=O)c3c2C)CCCC4)cc1Cl	9%	-8%
CCOC(=O)c1c(C)[nH]c(C)c1S(=O)(=O)NCC(=O)Nc1ccc(C)c(N(C)C)c1	-10%	?
CCOC(=O)c1oc2ccc(S(=O)(=O)n3nc(-c4ccc(Br)cc4)cc3N)cc2c1C	?	?
CC(C)Sc1ncc(Cl)c(C(=O)Nc2ccc(S(=O)(=O)N3CCCCC3C)cc2)n1 (stereo unspecified)	?	-6%
Fc1ccc(-c2cc(C(F)(F)F)nc(NCc3ccccc3)n2)cc1	-18%	-23%
Cc1ccc(Cn2c(C)c(CNCCCc3ccccc3)c(C(=O)O)c2C)cc1	-15%	4%
Cc1csc2nc(-c3cccc(NC(=O)C(C)C)c3)cn12	4%	-18%
COc1ccccc1CNC(=O)Cn1ncc2c(=O)oc3ccc(C)cc3c21	8%	2%
CC1CCN(C(=O)Cn2cc(SCC(=O)Nc3ccccc3)c3ccccc32)CC1	1%	0%

By substructure: those above containing an aryl thioether with sulfur outside any ring (twelve)
SMILES	HTT promoter inh	PMP22 txn prim
Cc1ccc(CNC(=O)c2nc(SCc3ccc(C)cc3)ncc2Cl)cc1	-8%	?
O=C(CSc1cn(CC(=O)N2CCCCC2)c2ccccc12)Nc1ccccc1F	?	-26%
Cc1cccc(C(=O)Nc2ccc3nc(SCC(=O)N4CCc5ccccc54)sc3c2)c1	-14%	-4%
Cc1ccc(-c2nnc(SCc3cccc(C#N)c3)o2)cc1	16%	-10%
Cc1cccc(NC(=O)CSc2nc(-c3ccccc3)cn2-c2ccccc2)c1C	?	?
O=C(CSc1nc2c([nH]c3ccccc32)c(=O)n1-c1ccccc1)N1CCCCC1	-3%	-24%
COc1ccc(-c2nc(Cn3c(SCc4cccc(Cl)c4)nc4ccncc43)c(C)o2)cc1	-28%	?
CSc1ccc(CCNC(=O)c2ccc3c(c2)nc2n3CCCCC2)cc1	?	-63%
CSc1ccc(CCNC(=O)CCc2c(C)nc3c(c(C)nn3-c3ccc(C)c(C)c3)c2C)cc1	9%	-20%
O=C(CSc1nccn1C1CCCC1)Nc1ccccc1	36%[activator]	4%
CC(C)Sc1ncc(Cl)c(C(=O)Nc2ccc(S(=O)(=O)N3CCCCC3C)cc2)n1 (stereo unspecified)	?	-6%
CC1CCN(C(=O)Cn2cc(SCC(=O)Nc3ccccc3)c3ccccc32)CC1	1%	0%

This is a random part of the collection; about 2.7% have a hit in one of these screens.
